# NPYLR7 agonist = agonists of mosquito NPYLR7 receptor, primary screen, cell-based, Aedes aegypti, calcium fluorescence, mosquito biting behavior; Aedes aegypti neuropeptide Y-like receptor 7 (NPYLR7); HEK293T NPYLR7/Galpha15, GCaMP6s calcium fluorescence; activation, % at 10 µM; hit rate 0.15% among 270,000; AID 1259423, 2018; in the data active means activation above about 40%;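 further: 0% = vehicle and 100% = reference agonist at the receptor; some compounds past the cut are filed as inactive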
# NPYLR7 agonist max-min = second read-out of NPYLR7 agonist, no call of its own (marks repeat the call); activation, %; measured here: Max-Min RFU normalised activation; some inactives read as strong as hits;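 span of the calcium signal over five minutes; 0% = vehicle and 100% = native peptide agonist; compound fluorescence can raise it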
# Active calls of the source: *; & = joins results of further samples. The list is partial; count on the stated rates, not on these rows.
# Below each compound: NPYLR7 agonist | NPYLR7 agonist max-min
> NC(=O)c1c(NC(=O)COC(=O)c2ccc([N+](=O)[O-])s2)sc2c1CCC2
    -3.8 | -7.1
> COc1cccc2c1OC1(C)CC2C(S(=O)(=O)c2ccc(C)c(C)c2)C(=O)N1C (centres undefined)
    6.9 | 10.0
> CCOC(=O)C1CCCN(C(=O)c2csc(COc3ccc(Cl)c(C)c3)n2)C1 (centres undefined)
    16.2 | 14.0
> FC(F)Oc1ccccc1CN1CCCC(Nc2ccccc2)C1 (centres undefined)
    -2.9 | -3.5
> CCCCCn1cc(C(=O)O)c(=O)c2cc(F)c(NC3CCCCC3)cc21
    -1.8 | -2.3
> Cc1cccc(NC(=O)c2cc(-c3ccco3)n(C3CCS(=O)(=O)C3)n2)c1C (centres undefined)
    1.9 | -0.2
> Oc1ccc(Cl)cc1C1NCCCn2cccc21 (centres undefined)
    27.8 | 30.0
> NC(=Nc1ccccc1)N1CCOCC1
    -3.9 | -3.0
> CCN(CC)C(=O)c1cc(C)cc(C)c1
    4.2 | 1.9
> CCn1ncc2c1NC(=O)CC2c1cc(OC)c(OC)c(OC)c1 (centres undefined)
    14.6 | 6.0
> CCOC(=O)C1CCCN(Cc2nc(NCc3ccc(C)o3)c3ccccc3n2)C1 (centres undefined)
    15.8 | 4.1
> Cc1cccc(C(=O)N(CCCN(C)C)c2nc3ccc(Br)cc3s2)c1
    0.1 | -2.5
> c1ccc(C2CCCN2C2CCN(c3ccc4c(c3)OCO4)CC2)nc1 (centres undefined)
    18.3 | 2.6
> CCOc1ccccc1-c1ccc(C(=O)NC2CC2)cc1
    5.9 | -4.0
> C/C1=C\CC[C@]23O[C@H]2[C@@H](OC3=O)c2c(C)coc2C1
    -7.2 | -16.1
> Cc1nc2ccc(C(=O)N3CCN(Cc4ccco4)C(CCO)C3)cc2[nH]1 (centres undefined)
    -6.3 | -9.2
> CC1=NNc2nc3c(c(=O)n(Cc4ccc(Cl)cc4)c(=O)n3C)n2C1C (centres undefined)
    -7.7 | -7.3
> CSc1ncc(CN2CCc3[nH]nc(-c4cccc(F)c4)c3C2)cn1
    1.9 | 2.7
> COc1ccc(NC(=O)N2CCSC2c2cccc(F)c2)c(OC)c1 (centres undefined)
    -5.4 | -1.9
> O=C(Cn1cnnn1)N1CCC(c2cc(-c3ccccc3Cl)n[nH]2)CC1
    1.0 | -5.8
> Cc1cc(N2CCOCC2)nc(Nc2ccc(NC(=O)C(C)Oc3ccccc3)cc2)n1 (centres undefined)
    14.3 | 6.3
> COc1ccc(N2CC(CNC(C)=O)OC2=O)cc1 (centres undefined)
    0.7 | 6.1
> O=C(CCC1CCCN(Cc2cccn2-c2nccs2)C1)Nc1ccccc1F (centres undefined)
    25.7 | 9.1
> O=C(c1cn(CCC2CCCCC2)nn1)N1CCCCC1c1nccs1 (centres undefined)
    3.2 | 1.1
> COC(=O)C(Cc1ccccc1)NC(=O)c1ccc(-n2nc(C)cc2C)cc1 (centres undefined)
    7.0 | 4.2
> COCCNC(=O)C1(C)CCN(Cc2ccc(C(C)C)cc2)C1 (centres undefined)
    9.3 | 6.8
> Cc1c(C(C)(C)C)sc(=N)n1C
    -7.9 | -15.0
> O=C(NCC1CCCCC1)c1cnc(-c2ccccc2F)s1
    -2.5 | -2.7
> COCc1ccccc1NC(=O)Cc1ccc2c(c1)CCCC2
    10.6 | 4.9
> O=C1NCC2(CCN(c3ccnc(C(=O)NCCc4ccccc4)c3)CC2)O1
    10.8 | 10.2
> CN(CC1(CO)CCCC1)C(=O)Cc1ccncc1
    -0.8 | -2.3
> CC(C)(C)c1ccc(C(=O)NN2C(=O)NC(C)(c3ccco3)C2=O)cc1 (centres undefined)
    0.2 | 11.5
> C=CCN(Cc1nc2scc(-c3ccccc3OC)c2c(=O)[nH]1)CC(O)Cc1ccccc1 (centres undefined)
    12.6 | 18.0
> Cc1ccc(C2CCCN2C(=O)CN(C)S(=O)(=O)c2ccc(C#N)cc2)cc1 (centres undefined)
    12.8 | 2.9
> Cc1cc(C)cc(C(O)c2ncc(-c3ccc4ccccc4c3)[nH]2)c1 (centres undefined)
    1.6 | 1.2
> Cn1ccnc1CN1C[C@H](Oc2ccccn2)[C@H]2C[C@@H]1Cc1c2[nH]c2ccccc12
    19.8 | 20.3
> Cc1cccc(C(CNC(=O)C(N)=O)N(C)C)c1 (centres undefined)
    -6.1 | -10.2
> CCn1ncc(CN2CCC(N3CCC(C(=O)NCc4cccnc4)CC3)CC2)c1C
    2.6 | -1.3
> COc1cccc(NC(=O)C2(C)CCN2Cc2cccc(OC)c2F)c1 (centres undefined)
    7.1 | 0.4
> COc1ccc(NC(=O)NCCNc2cc(-n3nc(C)cc3C)nc(C)n2)c(C)c1
    -3.9 | -12.4
> CC(C)(C)c1cc2nc(-c3ccccc3)cc(C(=O)NCc3ccncc3)n2n1
    -6.2&19.1 | 2.6&27.7
> O=C(NC(c1ccc2c(c1)OCCO2)C1CC1)c1ccc(=O)[nH]c1 (centres undefined)
    -4.7 | -5.9
> O=c1ccc(-c2ccc(F)cc2)nn1CCCNS(=O)(=O)c1ccc(Cl)s1
    0.0 | -0.5
> O=C(O)c1ccc(CSc2nnc(Cc3ccccc3)n2-c2cccc(Cl)c2)cc1
    -1.2 | -5.8
> COc1cc(F)ccc1N1CCN(Cc2nc(C)c(C)o2)CC1
    7.3 | 6.1
> CC(C)[C@H](CO)NC(=O)c1cc2ccc1CCc1ccc(cc1)CC2
    3.6 | 0.4
> COc1cc2c(cc1CN1CCN(c3cc(C(N)=O)ccn3)CC1)CCC2
    9.9 | -3.6
> N#CCCSc1nnc(-c2ccc(Cl)cc2)n1Cc1ccco1
    3.4 | 1.8
> Cc1ccc(F)cc1-c1n[nH]c(CCc2ccccc2)n1
    10.6 | 7.5
> COCCN(Cc1nccn1Cc1cccc(Cl)c1)C(=O)CCc1ccccc1
    17.8 | 15.0
> CCS(=O)(=O)NC1CCN(c2ccccc2C(=O)N2CCOCC2)CC1
    15.4 | 8.9
> O=C(Cc1ccc(Cl)cc1)NCc1cc(-c2ccc(F)cc2F)on1
    -0.3 | -1.6
> Cc1ccc(-n2c(SCC(=O)NCCc3ccccc3)nc3c(c2=O)SCC3)cc1
    -2.7 | -3.8
> CN1CCN(N=Cc2ccc(C#N)cc2)CC1
    6.4 | 4.5
> Cc1cccc(C)c1NC(=O)C(NC(=O)CN1C(=O)c2ccccc2C1=O)c1ccc(Cl)cc1 (centres undefined)
    -2.6 | -5.5
> CCOCCCn1c(SCc2ccc(F)cc2Cl)nc2cc(C(=O)OCC)ccc21
    -1.5 | -11.8
> COc1ccc(-n2nnc3c(N4CCN(C(=O)c5ccco5)CC4)ncnc32)cc1
    -9.0 | -16.6
> COCCCNC(=O)c1cc(NC(=O)Nc2cccc3ccccc23)ccc1N1CCCCC1
    2.2 | 7.2
> COCc1nc(NCCN2CCC(c3ccccc3)C2)c2cnn(C)c2n1 (centres undefined)
    20.7 | 16.9
> Cc1ccccc1-c1cnnc(NCCCN2CCCC2=O)n1
    -1.0 | -2.4

# (cont.)
# Below each compound: NPYLR7 agonist | NPYLR7 agonist max-min
> CCOC(=O)c1cc(-c2cccc(NC(=O)c3cc(Cl)nc(OC)c3)c2)n(-c2ccc(F)cc2)n1
    28.4 | 15.0
> Cc1cc(C)c2c(N)[nH]nc2n1
    -1.4&-0.2 | 2.6&-1.3
> Cc1ccccc1Cn1nc(C2CCCN(S(C)(=O)=O)C2)n(C)c1=O (centres undefined)
    -1.8 | 6.1
> NC(CC(=O)O)C(F)(F)F (centres undefined)
    2.5 | 0.0
> Cc1ccc2c(c1)C1(NCCS1)C(=O)N2Cc1cccc(C#N)c1 (centres undefined)
    17.1 | 22.6
> CC(=NCCCN1CCOCC1)c1c(C)[nH]n(-c2nc3ccccc3s2)c1=O
    -10.9 | -20.2
> Cc1nc(NCCCN2CCC(C(N)=O)CC2)cc(C(C)C)n1
    -18.5 | -17.5
> Nc1ncnc2sc3c(c12)CCN(C(=O)c1ccncc1)C3
    2.0 | -0.5
> COc1cc(OC)c(OC)cc1CN1CCN(Cc2cc(OC)c(OC)cc2Br)CC1
    1.2 | -0.9
> N#CCCS(=O)(=O)c1ccccc1
    10.7 | 4.9
> Cc1ccc(NC(=O)CCNC(=O)N2CCCC(C)C2)nc1 (centres undefined)
    6.6 | 3.0
> Cc1cccc(Nc2nnc(SC(C(=O)NC(N)=O)C(C)C)s2)c1 (centres undefined)
    1.9 | 0.1
> CCCCCCCCN1C(=O)C(=Cc2ccsc2)C(=O)NC1=S
    -0.4 | -2.0
> COc1ccc(-c2nnc3ccc(OCCNC(=O)C(C)(C)C)nn23)cc1OC
    -9.4 | -12.8
> CC(C)=CCn1c2ccc(NC(=S)NC3CC3)cc2c(=O)n1C
    7.2 | 3.1
> CCc1ccc(C2CC(c3ccc(F)cc3)=Nc3nnnn32)cc1 (centres undefined)
    6.4 | 16.4
> CCc1nc(C)c(C(=O)N2CCN(c3nsc4ccccc34)CC2)o1
    8.8 | 4.4
> CCn1nnc2c(N3CCCC3)ncnc21
    11.3 | 3.9
> COc1cc2nc[nH]c(=O)c2cc1OC
    1.0 | 0.0
> C=CCn1c(SCc2cccc3ccccc23)nc2c1c(=O)n(C)c(=O)n2C
    1.3 | 16.4
> COc1cc([C@@H]2SC(C)(C)[C@H](C(=O)O)N2C(C)=O)cc(OC)c1OC
    4.6 | 4.7
> O=C(/C=C/c1nc2ccccc2o1)N1CCC(N2CCCCC2)CC1
    -7.6 | -5.6
> O=C(NC1CCc2ccccc21)C1=COC2=NC(=O)N(Cc3cccc(Cl)c3)CCN12 (centres undefined)
    -0.7 | -4.8
> Cc1cccc(CSc2ncc(CO)n2CC(N)=O)c1
    7.2 | 3.7
> CNC(=O)CSc1nnc(-c2cnccn2)n1Cc1ccco1
    2.3 | 9.2
> CC(C)N(Cc1nccn1Cc1ccccc1C(F)(F)F)C(=O)c1ccc(F)cc1
    17.7 | 23.9
> Cc1nc(N2CC[C@@H](N3CCOCC3)[C@H](O)C2)cc(-n2cccn2)n1
    6.0 | 7.2
> COc1ccc(C)cc1NC(=O)N1CCN(C(C)c2ccccc2)CC1 (centres undefined)
    15.8 | 16.1
> CC1CN(C(=O)c2ccc(-c3nnc(-c4ccccc4)o3)cc2)CC(C)O1 (centres undefined)
    7.4 | 4.6
> CCN(CC)C(=O)Cn1c(=O)n(-c2ccc(C)cc2)c(=O)c2oc3ccccc3c21
    -4.0 | -5.1
> CC(=O)N1CCc2c(nc(-c3ccncc3)nc2NCC2CCOCC2)C1
    5.4 | 5.3
> COCC(=O)N(Cc1ccco1)Cc1ccccc1OS(=O)(=O)c1ccc(OC)cc1
    14.3 | 11.6
> CN1CCCc2cc(C(CNC(=O)NC(C)(C)C)N(C)C)ccc21 (centres undefined)
    -6.4 | -10.0
> O=C(Nc1cccc(Cl)c1)C(C1CCCC1)N1CCN(C(=O)c2cccc(F)c2)CC1 (centres undefined)
    -2.2 | 5.1
> Cc1ccc2nc(CN(C)Cc3cnc4c(-c5ccccc5)cnn4c3)[nH]c2c1
    -0.5 | -4.6
> O=C(Nc1cc(C(F)(F)F)c[nH]c1=O)C1(c2cccc(F)c2)CCOCC1
    1.9 | 1.3
> Cc1noc(C)c1S(=O)(=O)N[C@@H](C)C(=O)N(C)Cc1cnn(C)c1
    6.6 | 2.4
> Cc1cc(C)nc(-n2[nH]c(-c3ccc4ccccc4c3)cc2=O)n1
    -1.0 | 14.2
> CC(Oc1ccc(C(C)(C)C)cc1)C(=O)ON=C(N)c1ccncc1 (centres undefined)
    1.4 | 0.8
> N=C(N)N1CCN(S(=O)(=O)c2ccc(Cl)cc2)CC1
    7.4 | 11.5
> CCC(=O)N[C@@H]1c2ccccc2C2(CCN(C/C(C)=C/c3ccco3)CC2)[C@H]1OCCOC
    3.3 | -1.5
> CC(C)NC(=O)CN1CCN(c2cc(Oc3ccc(F)cc3Cl)ncn2)CC1
    5.2 | 8.8
> CC(C)[C@H](NC(=O)c1cccc([N+](=O)[O-])c1)c1nnc2c(C(F)(F)F)cccn12
    -24.6 | -30.4
> COc1ccccc1OCc1cc(C(=O)NCc2ccc(N3CCCC3=O)cc2)no1
    3.0&13.7 | 9.6&-1.5
> COc1cc(O)c2c(=O)c(O)c(-c3ccc(O)c(O)c3)oc2c1
    -0.4 | -6.7
> COc1ccc(OC)c(CN(Cc2nc(C(=O)O)co2)C(C)C(C)C)c1 (centres undefined)
    10.4 | 14.4
> O=C(O)/C=C/c1ccccc1OCC1CCCCC1
    2.2 | 0.3
> Cn1nc(C2CCN(c3ncccc3C(N)=O)CC2)n(-c2ccccc2)c1=O
    8.9 | 0.5
> O=C(CCc1ccccc1)NC1CCN(c2ccccc2C(=O)NCCc2ccccc2)CC1
    -2.4 | 6.7
> CC(C)c1ccc(NC2CCCN(C(=O)c3n[nH]c4c3CCC4)C2)cc1 (centres undefined)
    -5.8 | -8.2
> CN1C(=S)N(c2ccc(Oc3ccccc3)cc2)C(=O)/C1=C\c1ccncc1
    15.3 | 18.5
> CCCCC(CC)CCC(CC(C)C)OS(=O)(=O)O (centres undefined)
    -5.0 | -10.4
> O=C(O)c1cc(N2C(=O)/C(=C/c3ccc([N+](=O)[O-])cc3)C=C2c2ccccc2)ccc1O
    1.2 | 10.1
> Cc1ccc(C(=O)N(C)C2CCCCC2O)cc1 (centres undefined)
    -10.8 | -16.3
> CC(=O)Nc1ccc(NS(=O)(=O)c2c(C)cc(C)c(N(C)S(C)(=O)=O)c2C)cc1
    5.3 | 8.0
> C=CCNC(=O)c1nnc2n(c1=O)CCN2c1ccccc1
    1.8 | 0.9
> COc1cccc(C(=O)N2CCN(C(C(=O)NCc3ccc(F)cc3)C3CCCC3)CC2)c1 (centres undefined)
    4.7 | 7.1

# Some of the entries above in a different format:
structure: COc1ccc(OC)c(CN(Cc2nc(C(=O)O)co2)C(C)C(C)C)c1 (centres undefined)
  NPYLR7 agonist: 10.4	NPYLR7 agonist max-min: 14.4

structure: O=C(O)/C=C/c1ccccc1OCC1CCCCC1
  NPYLR7 agonist: 2.2	NPYLR7 agonist max-min: 0.3

structure: Cn1nc(C2CCN(c3ncccc3C(N)=O)CC2)n(-c2ccccc2)c1=O
  NPYLR7 agonist: 8.9	NPYLR7 agonist max-min: 0.5
